# HSD17B inhib: qHTS Assay for Inhibitors of HSD17B4, hydroxysteroid (17-beta) dehydrogenase 4. Potency, µM (doses to about 57.1 µM), inactives show top-dose activity change, negative = inhibition, actives largely listed as inhibitors. 75,000 compounds, 7.6% hits. recombinant HSD17B10, NADH fluorescence kinetic; many of its hits are not listed in these tables; active = well fitted inhibition curve with a large enough effect; inconclusive = small, poorly fitted or top-dose-only effect; inactive = no such curve, though single readings can be large or run the other way;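 note: the protocol describes HADH2 (HSD17B10) and not the HSD17B4 of the title; nearly all actives have a fitted effect of over 70% in size; most hits overshoot -100% by far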
#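 His-tagged E. coli-expressed HADH2 at 20 nM in 100 mM Tris-HCl pH 9.0 with 0.01 % Tween-20, preincubated 15 min with compound at room temperature. Reaction with 1 mM NAD+ and 90 uM beta-hydroxybutyryl coenzyme A; NADH fluorescence (360/450 nm) read kinetically over 4 min, last minus first point.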
# Numbers without * were called inactive; ? = inconclusive; [ ] = remark or other dose. % is set by controls: 0 for no effect and ±100 for the full control effect; potency is the fitted concentration of half-maximal effect. This is a subset; rates above refer to the full screens.
SMILES,HSD17B inhib
O=C(Nc1cccc2nsnc12)c1ccc2c(c1)OCCO2,-1%
C=CCOC(=O)C1=C(C)NC(SCC(=O)OCC)=C(C#N)C1c1ccc(O)c(OC)c1 (centres undefined),71%[activator]
COc1ccc(C(O)P(=O)(O)CCc2ccccc2)cc1 (centres undefined),8%
O=C(NC1CC2CCC1C2)C1COc2ccccc2O1 (centres undefined),-3%
COC(=O)c1cc(OC)c(OC)cc1NC(=O)Nc1ccc(OC)cc1OC,?
CCCn1c(CN2CCN(C(=O)c3ccco3)CC2)nc2c1c(=O)n(C)c(=O)n2C,-18%
c1ccc(Nc2ncncc2-c2ccoc2)cc1,-7%
O=C(NCCOCC(F)(F)C(F)F)c1cc(F)c(F)cc1Cl,5%
Cc1cc(C)c(C(=O)COC(=O)Cn2cnnn2)cc1C,?
c1cc(CNCCN2CCNCC2)ccn1,4%[11.4 µM]
COc1cccc(-c2cc(N(C)Cc3ccco3)ncn2)c1,32µM*
CC(C(=O)Nc1ccccc1C(=O)N1CCCC1)n1nnc2ccccc21 (centres undefined),-23%
COC(=O)CCc1n[nH]c(=O)[nH]c1=O,7%
CCc1ccc2nc(NC(=O)c3cc(C)on3)sc2c1,-4%
O=C(Nc1ccc(OCC(=O)N2CCN(S(=O)(=O)c3ccccc3)CC2)cc1)c1ccco1,?
C=CCn1cnc2c(c1=O)c1nc3ccccc3nc1n2/N=C/c1ccccn1,?
COc1ccc(CNc2ncncc2-c2ccccc2C)c(OC)c1,-16%
Cc1ccn2c(CCc3nnc4cc(C)ccn34)nnc2c1,7%[11.4 µM]
Cc1c(NC(=O)CSc2nnnn2Cc2ccccc2)c(=O)n(-c2ccccc2)n1C,7%
Cc1cccc(C)c1OCC(O)CN (centres undefined),0%
Cc1cccc(NC(=O)Cn2cnc3sc(C)c(S(=O)(=O)N4CCC(C)CC4)c3c2=O)n1,-1%
COc1cc(O)c2c(c1)C(=O)c1cc(C)cc(O)c1C2=O,-8%
O=C(COc1ccc(F)cc1)N(CC1=CCS(=O)(=O)C1)c1ccccc1,-3%
O=C(CN1CCN(c2ccc(F)cc2)CC1)c1ccc2c(c1)OCO2,-13%
O=C(CN1CCN(c2ccccn2)CC1)Nc1cccc(C(F)(F)F)c1,?
CC(C)OC(=O)CSc1nnc(-c2ccccn2)n1-c1ccccc1,0%
CCOC(=O)C1CCCN(C(=O)c2ccc(CS(=O)(=O)c3ccc(C)cc3)o2)C1 (centres undefined),-16%
COC(=O)COc1ccc(Oc2cc(C)nc(SC)n2)nn1,0%
CCN(CC)CC(=O)Nc1c(Br)ccc2c1OCO2,0%
O=C(Nc1c(-c2ccccc2)nc2c(Br)cc(Br)cn12)c1ccco1,-4%
CCOC(=O)/C=C1\SCC(=O)N1CC(O)CN1C(=O)CS/C1=C\C(=O)OCC,11%
O=C1C2C(C(=O)N1Cc1cccnc1)C1C=CC2C12CC2 (centres undefined),-1%
O=C(NC1CCN(C(=O)Nc2ccccc2)CC1)C1CCCCC1,7%
CCCCC(CC)CNCC(CC)CCCC (centres undefined),-3%
CC(C=O)Cc1ccc(C(C)(C)C)cc1 (centres undefined),-5%
Cc1cccc(S(=O)(=O)c2c(N)n(/N=C/c3ccco3)c3nc4ccccc4nc23)c1,32µM*

# 2 entries from above, tab-delimited.
Structure	HSD17B inhib
CCOC(=O)/C=C1\SCC(=O)N1CC(O)CN1C(=O)CS/C1=C\C(=O)OCC	11%
COC(=O)CCc1n[nH]c(=O)[nH]c1=O	7%

# More records follow:
SMILES,HSD17B inhib
N#Cc1nc(COc2cccc(Cl)c2)oc1N1CCCC1,8%
COc1cccc(CNC(=O)Cn2c(=O)oc3ccccc32)c1OC,8%
CN(Cc1ccccc1)c1nc2c(c(=O)[nH]c(=O)n2C)n1CCSc1nc2ccccc2[nH]1,5%
CCOC(=O)C1C2C=CC3(CN(c4ccccc4CC)C(=O)C13)O2 (centres undefined),4%
CCOC(=O)CSC1=Nc2ccccc2C2=NC(CC(=O)NCc3ccc4c(c3)OCO4)C(=O)N12 (centres undefined),-11%
Cc1ccc(CNC(=O)[C@H]2C[C@@H]2[C@H](NP(=O)(c2ccccc2)c2ccccc2)c2ccccc2)c(F)c1F,9%
CCO[C@H]1O[C@@H]([C@H](COCc2ccccc2)OCc2ccccc2)[C@@H](OCc2ccccc2)[C@H]1O,-7%[25.6 µM]
Cc1cc(C(=O)N2CCN(c3ccccn3)CC2)c(C)o1,?
CCOC(=O)Cn1c(=O)oc2cc(S(=O)(=O)NC3CCCc4ccccc43)ccc21 (centres undefined),-7%
CC(=O)Nc1cccc(-c2cnc3ccccc3n2)c1,-3%
COc1ccc(CNc2nc3c(c(=O)[nH]c(=O)n3C)n2CCCc2ccccc2)cc1,8%
CC(=O)Nc1ccc(C(=O)CSc2nnc(-c3ccc(O)cc3)n2CC2CCCO2)cc1 (centres undefined),?
O=C(O)Cn1nnnc1SCC(=O)Nc1ccc(OC(F)(F)F)cc1,10%
c1nc(N2CCNCC2)c2sc3nc(N4CCOCC4)c4c(c3c2n1)CCC4,-12%
Cc1[nH]c(N)nc(=S)c1CCCNc1ccccc1,-8%[11.4 µM]
CC(SC1CCCC1)C(=O)NC(C)(C#N)C(C)C (centres undefined),-4%
c1ccc(Nc2c3c(nc4ncnn24)CCC3)cc1,-6%
O=C(CCNS(=O)(=O)c1cccc2nsnc12)NCCc1ccccc1,2%
O=S1(=O)Nc2c(ccc3cccnc23)-c2ccccc21,?
CCCC(=O)Nc1c2c(nn1-c1ccc(OC)cc1)CS(=O)(=O)C2,6%
CCOC(=O)c1cc2sc(C)cc2n1CC(=O)NCc1ccc(F)cc1,-12%
CC(=O)N1CCc2cc(Br)cc(S(=O)(=O)NCCCN3CCC(C)CC3)c21,11%
CC(=O)N1CCN(CC(=O)Nc2c(Cl)cccc2Cl)CC1,3%
Cc1cc(=O)oc(C)c1C(=O)NCCCN1CCN(c2ccc(F)cc2)CC1,6%
Nc1cc(Cl)c(NC2=NCCN2)c(Cl)c1,-6%
CS(=O)(=O)N(CC(N)=O)c1ccc(F)c(Cl)c1,-8%
CCOC(=O)N1CCN(C(=O)Cn2ncn3nc(-c4cccs4)cc3c2=O)CC1,32µM*
Cc1cc(NC(=O)Cn2nc(C(F)(F)F)c3c2CCC3)n(-c2ccccc2)n1,8%
S=C(CSc1ccccc1)Nc1cccc2ccccc12,-6%[11.4 µM]
Cc1nn(Cc2ccccc2Cl)c(C)c1C(=O)NCc1ccco1,-5%
CCCCOc1ccccc1NC(=O)CC1Nc2ccccc2NC1=O (centres undefined),20%
O=C(CN1C(=O)COc2ccc(Cl)cc21)Nc1ccc2c(c1)OCCO2,-10%
CCc1nnc(NCn2nc(C)cc2C)s1,-1%
FC(F)(F)c1ccccc1-c1cncnc1NCc1cccnc1,-10%
Cc1oc(C)c(C(N)=O)c1C(N)=O,-12%
Cc1ccn2cc(CCNC(=O)c3ccc(Br)o3)nc2c1,9%
CCCCC(=O)Nc1ccc2c(c1)OCCO2,8%
C(=C\c1ccccc1)/CN1CCN(Cc2ccc3c(c2)OCCO3)CC1,8%
O=C(CCc1ccccc1)N1CCN(CCO)CC1,7%
CC(OC(=O)c1nsc(Cl)c1Cl)C(=O)NCc1ccco1 (centres undefined),-4%
Cc1cccc(NC(=O)CN2CCN(CC(=O)Nc3cccc(C)c3)CC2)c1,6%
O=S(=O)(c1ccc2c(c1)OCCO2)N1CCC(O)(c2ccc(Cl)cc2)CC1,22%
CCOc1cccc(-c2cc(C(=O)N/N=C/c3cccc(OC)c3O)[nH]n2)c1,0%
O=C(CSc1nc(-c2ccccc2)cc(=O)[nH]1)N1CCc2ccccc21,-4%
C=C1CCC2C(CC2(C)C)C(=C)CC/C1=N/O (centres undefined),-6%
CCC(c1nnc(SCCNCCO)n1CCN1CCOCC1)N(C)C (centres undefined),8%
O=C(CCCn1c(=O)[nH]c2ccsc2c1=O)N1CCCCC1,0%
CCOC(=O)N/N=C1/C[C@@H](O)[C@@H](O)[C@@H]2[C@H]3C(=O)N(c4ccc(F)cc4F)C(=O)[C@@H]3CC[C@H]12,4%[11.4 µM]

# 3 entries picked at random from those above:
SMILES,HSD17B inhib
O=C(CCCn1c(=O)[nH]c2ccsc2c1=O)N1CCCCC1,0%
CCC(c1nnc(SCCNCCO)n1CCN1CCOCC1)N(C)C (centres undefined),8%
CCOc1cccc(-c2cc(C(=O)N/N=C/c3cccc(OC)c3O)[nH]n2)c1,0%

# Next section
SMILES,HSD17B inhib
Cc1ccc(CNC(=O)CSc2nc(N3CCCCC3)nc(N3CCCCC3)n2)cc1,-27%
Cc1cc(C)n2nc(-c3cccnc3)nc2n1,11%
COc1ccc(-n2c(=O)cc(N3CCN(c4ccccc4OC)CC3)[nH]c2=O)cc1,-4%
CC(=O)NCCNc1ncnc2ccc(-c3ccc4c(c3)OCO4)cc12,?
CC(C)(C)Cc1nnc(NS(=O)(=O)c2ccc(F)cc2)s1,-8%
O=c1n(CC2CO2)c(=O)n(CC2CO2)c(=O)n1CC1CO1 (centres undefined),-3%
Cn1nc(-c2ccc(C(=O)NCC3CCCO3)cc2)c2ccccc2c1=O (centres undefined),4%
Cc1cc(=O)oc2cc(Oc3ncccn3)ccc12,32µM*
Cc1cccc(CN2CCN(C(c3ccccc3)c3ccc(Cl)cc3)CC2)c1 (centres undefined),3%
C=CCN1C(=O)/C(=C2\SC(N3CCOCC3)=NC2=O)c2cc(Br)ccc21,-6%
CC1(C)OC(=O)C(=CNCC(O)c2ccccc2)C(=O)O1 (centres undefined),15%
O=C(Nc1c(C(=O)Nc2cccc(F)c2)oc2ccccc12)c1ccc2c(c1)OCO2,274%[activator]
CCCCS(=O)(=O)NC1=NCN(CC)CN1,7%
CCCCC(CC)CNC(=O)c1[nH]c(C)c(C(C)=O)c1C (centres undefined),-1%
O=S1(=O)CCN2C(=N1)Sc1c2ccc2c1CCCC2,4%
Cc1cc(C)n2c(SCCC(C)C)nnc2n1,-14%
CSc1nc2ccc(S(=O)(=O)Nc3c(C)n(C)n(-c4ccccc4)c3=O)cc2s1,-3%
COc1cc(C(=O)N2CCN(C(=O)Cc3ccccc3)CC2)cc(OC)c1OC,-1%
NS(=O)(=O)c1ccc(CCNC2CC(=O)N(CCc3ccccc3)C2=O)cc1 (centres undefined),-3%
CCOC(=O)C(C)Sc1ccc2nnc(-c3ccc(F)cc3)n2n1 (centres undefined),32µM*
CCc1nnc(NC(=O)c2ccc(NS(=O)(=O)c3ccccc3)cc2)s1,?
CCC1CCCCN1CCNS(=O)(=O)c1ccc2c(c1)oc(=O)n2C (centres undefined),10%
COC(=O)C(C(=O)OC)N1C(=O)CCC1=O,6%
c1csc(CNc2ccnc(-c3ccc4c(c3)OCO4)n2)c1,-17%
COc1cccc(N2CCN(c3c4c(nc5ncnn35)CCC4)CC2)c1,0%
CCCCCCCCCCCCCCC(C(=O)OC)C(O)(CC(=O)OC)C(=O)OC (centres undefined),-8%
CCCCC1(COC(=O)CCC(=O)O)C(=O)N(c2ccccc2)N(c2ccccc2)C1=O,2%
CC(C)(C)CC(C)(C)c1ccc(OCCO)cc1,8%
COc1c(C)cccc1C(=O)Nc1cc(Cl)ccc1N1CCOCC1,?
Cn1nnc(NC(=O)COc2ccc(C3CCCCC3)cc2)n1,2%
COc1ccc(Oc2coc3c(CN(C)C)c(O)ccc3c2=O)cc1,32µM*
COc1ccc(CCN(C)C(=O)N2CCOCC2)cc1OC,14%
CC1(C)CC(=O)C(/C=N/c2ccccn2)=C(O)C1,4%
CCCc1cc(C(=O)Nc2ccc(C)cc2)no1,0%
O=C(Nc1ccc(OC(=O)c2cccnc2)cc1)c1cccnc1,-6%
O=C(CCNS(=O)(=O)c1cccc2nsnc12)NC1CCN(Cc2ccccc2)CC1,-5%
CC(=O)NCc1c(I)c(NC(C)=O)c(I)c(C(=O)O)c1I,0%
O=C(NC1CCCCCC1)c1cc(S(=O)(=O)N2CCC3(CC2)OCCO3)ccc1F,3%
CCn1nnc(-c2ccccc2NC(=O)C(F)(F)F)n1,8%
COc1ccc(C(C)=O)cc1COC(=O)c1ccc(S(=O)(=O)N2CCOCC2)cc1,-6%
COc1ccc(CNc2ccnc(-c3ccccc3C(F)(F)F)n2)c(OC)c1,-14%
Clc1ccccc1-c1nc(N2CCNCC2)c2ccccc2n1,-13%
COc1cc2ccccc2cc1-c1nnc(COc2ccccc2)o1,20µM*
COc1ccccc1Nc1nc(N)nc(CSc2nnc(C)s2)n1,13%
CCOC(=O)c1ccc(-c2c(C(=O)OCC)oc3cc(O)c(CC)cc3c2=O)o1,11%
CCOC(=O)c1[nH]c2cc(OC)c(OC)cc2c1NC(=O)c1ccc2c(c1)OCO2,?
Cc1cccc(C(=O)Nc2cc(=O)n(C)c(=O)n2C)c1,-5%
CCn1cc(C(=O)NCC2COc3ccccc3O2)c2cc(OC)c(OC)cc2c1=O (centres undefined),1%
O=c1cnc2cnc(Oc3cccc(Cl)c3)nc2n1C[C@H]1CCCO1,-9%
CCOC(=O)CNC(=O)CSc1nc2sc(C)c(C)c2c(=O)n1C,5%

# Structures shown so far with a thiophene ring, fused or not, in the order listed:
SMILES,HSD17B inhib
Cc1cccc(NC(=O)Cn2cnc3sc(C)c(S(=O)(=O)N4CCC(C)CC4)c3c2=O)n1,-1%
c1nc(N2CCNCC2)c2sc3nc(N4CCOCC4)c4c(c3c2n1)CCC4,-12%
CCOC(=O)c1cc2sc(C)cc2n1CC(=O)NCc1ccc(F)cc1,-12%
CCOC(=O)N1CCN(C(=O)Cn2ncn3nc(-c4cccs4)cc3c2=O)CC1,32µM*
O=C(CCCn1c(=O)[nH]c2ccsc2c1=O)N1CCCCC1,0%
c1csc(CNc2ccnc(-c3ccc4c(c3)OCO4)n2)c1,-17%
CCOC(=O)CNC(=O)CSc1nc2sc(C)c(C)c2c(=O)n1C,5%
